# Screening results from PubChem.
# Cruzain Triton: blocks cruzain activity in presence of Triton detergent. purified cruzain, Z-FR-AMC fluorescence, 0.01% Triton. AID 1478. hit rate 0.43% among 200,000. P25779. Potency, µM, for the others: max response, negative = inhibition, usual class: inhibitors; active = well fitted curve in the direction sought with a large enough effect; inconclusive = small, poorly fitted or top-dose-only effect, or another doubt; inactive = no such curve, though single readings can be large; an effect the other way counts as inactive or inconclusive;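 note: plate controls were neutral wells for no effect and buffer without enzyme for full effect; nearly all actives have a fitted effect of over 40% in size; top concentration of the series not given in the record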
# Target sequence (P25779 123-467 limits assumed): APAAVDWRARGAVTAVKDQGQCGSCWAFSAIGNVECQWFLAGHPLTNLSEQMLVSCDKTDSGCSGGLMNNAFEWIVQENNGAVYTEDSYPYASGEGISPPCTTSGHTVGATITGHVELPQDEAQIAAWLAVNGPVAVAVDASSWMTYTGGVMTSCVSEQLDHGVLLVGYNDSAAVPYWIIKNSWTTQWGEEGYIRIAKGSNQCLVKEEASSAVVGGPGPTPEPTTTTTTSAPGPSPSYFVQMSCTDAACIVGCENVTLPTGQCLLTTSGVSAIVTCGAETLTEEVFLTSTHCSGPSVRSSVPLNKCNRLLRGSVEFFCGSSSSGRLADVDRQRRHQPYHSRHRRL
#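 Purified cruzain (1.5 nM final) was preincubated with compounds for 15 min at room temperature in 100 mM sodium acetate pH 5.5, 5 mM DTT, 0.01% Triton X-100. Reaction started with 2 uM Z-FR-AMC; AMC fluorescence change over 60 s gave activity.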
# Cruzain noTriton: blocks cruzain activity in detergent-free assay. purified cruzain, Z-FR-AMC fluorescence, no detergent. Potency, µM, inactives show max response, negative = inhibition, usual class: inhibitors. hit rate 2.3% among 200,000; active = well fitted curve in the direction sought with a large enough effect; inconclusive = small, poorly fitted or top-dose-only effect, or another doubt; inactive = no such curve, though single readings can be large; an effect the other way counts as inactive or inconclusive;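 note: plate controls were enzyme without inhibitor for no effect and buffer without enzyme for full effect; nearly all actives have a fitted effect of over 40% in size; top concentration of the series not given in the record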
#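 Purified cruzain at 1.5 nM, pre-incubated 15 min with compound at room temperature in 100 mM sodium acetate pH 5.5, 5 mM DTT, 0.00005% Triton X-100. Reaction started with 2 uM Z-FR-AMC; AMC fluorescence increase over 60 s gives rate.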
# SARS PLP yeast: SARS-CoV PLP inhibition in yeast; hit rate 0.19% among 330,000; Potency, µM (series often up to 32.9 µM), without a hit: at the top dose activity, positive = growth rescue; S. cerevisiae expressing SARS-CoV PLpro, growth rescue; control for the full effect not named in the record; note: 0% is about no effect; nearly all actives have a fitted effect of over 55% in size; growth read by luminescence after 48 h
# NS1 inh: influenza NS1 inhibition | S. cerevisiae slowed by influenza A NS1, growth recovery by OD600 | Potency, µM (titrated, usually from 46.1 µM), for the others: at the top dose activity, positive = more growth | hit rate 0.4% among 270,000 | AID 2326; note: actives are rising curves; nearly all actives have a fitted effect of over 50% in size
#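 Compounds were scored for reversing the slow growth caused by influenza A NS1 in S. cerevisiae, measured by optical density at 600 nm. Assay medium contained 2% galactose at pH 6.0; NS1-free yeast of the same strain were the positive control.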
# RE007 growth inh: less growth of the S. pombe RE007 Vpr strain; Potency, µM (highest dose often 92.2 µM), for inactives: top-dose activity change, negative = less growth; hit rate 0.21% among 360,000; S. pombe RE007 Vpr strain, BacTiter-Glo ATP luminescence, 24 h; control for the full effect not named in the record; active = well fitted falling curve with a large enough effect; inconclusive = small, poorly fitted or top-dose-only effect; inactive = no such curve, though single readings can be large or run the other way;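 note: % is set by controls: 0 for no effect and ±100 for the full control effect; nearly all actives have a fitted effect of over 50% in size; the assay follows cell death caused by Vpr and the record does not say whether a fall means rescue or toxicity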
#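 Fission yeast strain RE007, carrying one chromosomally integrated HIV-1 vpr copy, was seeded at OD 0.01 in PMG+AL medium with 23 nL pinned compound. After 24 h at 30 °C and 99% humidity, viability was read by BacTiter-Glo luminescence.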
# MARV entry inh: Marburg virus entry inhibition | AID 540276 | Marburg virus pseudotyped entry inhibition, cell reporter; control for the full effect not named in the record; about a third of the inactives were read at about 46 µM | Potency, µM (top dose mostly 37.8 µM), for the others: at the top dose activity change, negative = inhibition, most hits filed as inhibitors | hit rate 1.8% among 300,000; active = well fitted inhibition curve with a large enough effect; inconclusive = small, poorly fitted or top-dose-only effect, or effect the other way; inactive = flat fitted curve, though single readings scatter; tested in HEK293 cells; about a fifth of its hits are not listed in these tables; note: % is set by controls: 0 for no effect and ±100 for the full control effect; luciferase read-out
# 2A StopGo: lowers the luciferase signal of an FMDV 2A StopGo reporter. Potency, µM (top dose mostly 57.9 µM), without a hit: at the top dose signal change, negative = less light. human cells with a luciferase reporter of 2A StopGo recoding; control for the full effect not named in the record. hit rate 1.2% among 410,000; active = well fitted falling curve with a large enough effect; inconclusive = small, poorly fitted or top-dose-only effect; inactive = no such curve, though single readings can be large or run the other way; tested in HEK293T cells; note: % is set by controls: 0 for no effect and ±100 for the full control effect; nearly all actives have a fitted effect of over 45% in size; luciferase light after 4 h
# Lassa entry inh: Lassa virus entry inhibition | AID 540256 | hit rate 1.2% among 300,000 | Potency, µM (top dose mostly 37.9 µM), for the others: at the top dose activity change, negative = inhibition, actives largely listed as inhibitors | Lassa virus pseudotype entry inhibition, cell reporter; control for the full effect not named in the record; active means well fitted inhibition curve with a large enough effect; inconclusive means small, poorly fitted or top-dose-only effect, or effect the other way; inactive means flat fitted curve, though single readings scatter; tested in HEK293 cells; note: % is set by controls: 0 for no effect and ±100 for the full control effect; nearly all actives have a fitted effect of over 50% in size; luciferase read-out
# * marks the source's active call; other numbers are inactive results; ? = inconclusive; / = no result given; & = joins results of further samples; [ ] = remark or other dose. Unless noted, calls come from the whole dose curve; as a rule, active means well fitted rising curve with a large enough effect; inconclusive means small, poorly fitted or top-dose-only effect; inactive means no such curve, though single readings can be large or run the other way. Potency is the fitted concentration of half-maximal effect.
# Fields – Cruzain Triton	RE007 growth inh	SARS PLP yeast	MARV entry inh	Cruzain noTriton	NS1 inh	2A StopGo	Lassa entry inh
(1) CC(=O)n1cc([C@@H]2C=C(C(=O)N3CCN(Cc4ccc5c(c4)OCO5)CC3)O[C@H](OCCCCO)C2)c2ccccc21
    /	-12.3%	1.0%	/	/	-6.2%	?	/
(2) COc1ccccc1N(CN1CCCC1=O)C(=O)COc1ccccc1
    2.8%	13.3%[3.69 µM]	-0.3%	-15.2%	2.4%	1.0%	1.8%	-5.2%
(3) N#C/C(=C/c1ccc(-c2ccccc2[N+](=O)[O-])o1)C(=O)NCCN1CCCCC1
    /	3.1%	-1.4%	?	/	-0.3%	-2.2%	?
(4) CCc1ccccc1NC(=O)CSc1nc(-c2ccccc2OC)nc2c1Cc1c(CO)cnc(C)c1O2
    -3.9%	/	/	/	14.3%	/	-27.9%	18.0%[46.1 µM]
(5) CCCCCC(O)CCCC(=O)O (stereo unspecified)
    -1.6%	-5.3%[18.4 µM]	/	?	-3.6%	-14.6%	?	13.2%
(6) COCCNC(=O)C(OC(=O)c1nsc(Cl)c1Cl)C(C)C (stereo unspecified)
    /	20.4%	3.0%	?	/	/	-13.7%	24.3%[46.1 µM]
(7) O=C(N/N=C/c1coc2ccc(Cl)cc2c1=O)c1cc(O)cc(O)c1
    /	-22.4%	5.6%	-10.2%	/	-4.3%	-21.0%	-2.0%
(8) O=S(=O)(c1ccccc1)c1nc(-c2ccccc2Cl)oc1NCCCN1CCOCC1
    /	-3.6%	-0.7%	?	/	/	20.7%	?
(9) COc1cc(CN2CC=C(c3ccc(F)cc3)CC2)cc(OC)c1
    /	7.1%	1.9%	/	/	2.1%	-2.7%	/
(10) O=C(c1cccc2c1C(=O)N(Cc1cccnc1)C2)N1CCN(c2ccccc2)CC1
    -0.2%	-1.6%	-1.3%	7.6%	-10.9%	1.7%	-21.8%	-19.8%
(11) FC(F)(F)c1cccc(-c2noc(CN3CCOCC3)n2)c1
    2.9%	-7.8%	11.1%	-1.9%	1.3%	-2.6%	-1.9%	3.2%
(12) CC(C(=O)Nc1ccc(F)c(F)c1)N1CCN(C)CC1 (stereo unspecified)
    /	4.5%	-1.4%	?	/	2.2%	-6.3%	25.5%
(13) CC1CCN(CC(CS(=O)(=O)c2ccc([N+](=O)[O-])cc2)N2CCC(C)CC2)CC1 (stereo unspecified)
    /	2.4%	-2.5%	/	/	2.4%	28.2µM*	/
(14) O=C(O)Cn1ccc2cc(S(=O)(=O)N3CCCCCC3)ccc21
    -2.3%	14.2%	15.2%	-7.1%&-7.1%[46.1 µM]	15.0%	15.7%	-3.1%&-9.5%	9.6%[46.1 µM]
(15) COc1ccc2nc(NC(=O)C3CC(=O)N(c4ccccc4)C3)sc2c1 (stereo unspecified)
    /	-9.1%	/	-13.4%[46.1 µM]	/	12.0%	0.0%	10.0%
(16) O=S(=O)(NCCCCCNS(=O)(=O)c1ccc(F)cc1)c1ccc(F)cc1
    1.1%	-2.2%	1.6%	?	7.4%	-17.8%	0.0%	-6.4%
(17) O=C(/C=C/NNC(=O)c1ccc(Br)cc1)c1ccccc1
    -16.8%	-17.3%	-11.1%	?	-4.7%	-22.3%	-8.7%	?
(18) Cc1ccc(N2CC(C(=O)Nc3cccnc3)CC2=O)cc1Cl (stereo unspecified)
    /	-9.5%	0.2%	-5.5%[46.1 µM]	/	0.8%	-5.3%	13.7%
(19) O=C(NCC(=O)N1CCC(N2CCCCC2)CC1)C1CCCCC1
    -1.8%	4.1%	3.8%	4.6%	-1.7%	3.6%	12.8%	-2.0%
(20) Cc1ccc(S(=O)(=O)N2CCCOC2CNC(=O)C(=O)NCCN2CCOCC2)cc1 (stereo unspecified)
    /	4.3%	0.7%	18.6%	/	0.0%	-22.8%	9.4%
(21) CCN(C(=O)c1cc2c(=O)n3ccccc3nc2n1CCCOC)C1CCCCC1
    /	-3.6%	10.0%	-2.5%[46.1 µM]	/	7.7%	-3.7%	-2.1%[46.1 µM]
(22) Cn1c(=O)c2c(nc(OCCc3ccccc3)n2C)n(C)c1=O
    /	-3.0%	1.1%	-9.0%[46.1 µM]	/	-6.4%	-1.0%	-8.7%
(23) O=S(=O)(c1ccccc1)N1CCN(S(=O)(=O)N2CCCCCC2)CC1
    /	6.5%	0.8%	1.4%[46.1 µM]	/	14.8%	-11.1%	-1.8%
(24) COCCCn1c(=N)c(C(=O)NCc2ccco2)cc2c(=O)n3ccccc3nc21
    ?	/	/	2.51µM*	-11.2%	/	-14.7%	5.6%[46.1 µM]
(25) O=C(Oc1c(CN2CCOCC2)cc(Cl)c2cccnc12)c1ccccc1F
    /	?	2.51µM*	?	/	/	-15.5%	?
(26) CCN1C(=NCCc2ccccn2)N[C@@H](c2cccc(C(F)(F)F)c2)C(C(=O)OC)=C1C
    /	-20.8%	-4.3%&14.4%	/	/	-7.8%	-16.0%	/
(27) CC(CCc1ccccc1)NCCC#N (stereo unspecified)
    /	9.2%	-0.8%	?	/	-0.7%	-16.4%	-19.3%[46.1 µM]
(28) CCc1ccc(NC(=O)c2ccccc2NC(=O)C2CCCO2)cc1 (stereo unspecified)
    -2.1%	8.6%	-6.1%	?	2.0%	-7.0%	9.3%	53.3%[14.3 µM]
(29) O=C(O)CC1(O)C(=O)N(Cc2ccccc2)c2ccccc21 (stereo unspecified)
    /	1.2%	0.8%	15.8%[46.1 µM]	/	4.2%	-9.8%	6.0%
(30) CCOc1ccc(NS(=O)(=O)c2ccc(OCC(=O)NCCCOC)cc2)cc1
    -0.7%	-9.8%	3.3%	8.9%	1.7%	-6.2%	15.6%	5.2%
(31) CN(CCC#N)C(=O)COC(=O)/C=C/c1ccc2c(c1)OCO2
    /	-3.4%	2.1%	6.4%	/	/	-10.9%	23.2%[46.1 µM]
(32) CCCCNS(=O)(=O)c1ccc2nc(SCC(=O)c3ccccc3OC)[nH]c2c1
    -7.7%	-3.0%	10.9%	?	-21.2%	-0.3%	-9.6%	-13.4%
(33) Cc1nnc(SCC(=O)Nc2ccccc2C(=O)NC2CC2)s1
    -3.0%	-7.0%	-4.7%	1.4%	-3.0%	0.2%	-3.6%	-1.0%
(34) COC(=O)Nc1sccc1C(=O)Nc1sccc1C(=O)OC
    1.3%	18.9%	0.1%	?	-5.6%	12.1%	4.6%	-9.5%
(35) COCCn1c(SCC(=O)c2c(N)n(C)c(=O)n(C)c2=O)nc2ccccc21
    /	-5.0%	0.6%	-2.8%[46.1 µM]	/	-4.7%	16.9%	/
(36) Cc1cc(C)c(C(=O)CC(=O)c2ccccc2Cl)c(O)c1
    /	?	-7.7%	?	/	-73.2%	56.6%[activator]	-10.8%
(37) CCOC(=O)c1c(C)[nH]c(C)c1S(=O)(=O)N1CCCC(C(=O)Nc2ccc(OC)c(OC)c2)C1 (stereo unspecified)
    -1.9%	/	/	/	-6.3%	/	-15.2%	23.2%[46.1 µM]
(38) Clc1ccc(-c2nnc(-c3ccccc3)o2)c(Cl)c1
    -6.5%	-12.3%	-2.6%	?	5.9%	-25.6%	-28.7%	?
(39) CC(C)n1c(-c2cccnc2)nc2cnccc21
    -1.0%	4.7%	11.9%	7.9%	17.5%	2.9%	-9.9%	0.0%
(40) Cc1cc(NC(=O)c2cncc(Br)c2)ccc1NC(=O)c1cc2ccccc2o1
    /	2.1%	-0.3%	/	/	2.2%	?	/
(41) C#CCOCCOCCOCCNc1nc(N2CCN(C(=O)[C@H](CCCCN)n3cc([C@@H](N)C(C)CC)nn3)CC2)nc(N2CCN(C(=O)[C@H](Cc3ccc(O)cc3)n3cc([C@@H](N)C(C)CC)nn3)CC2)n1 (stereo partly specified)
    /	0.5%	-2.1%	/	/	3.2%	-7.5%	/
(42) O=C(NCCN1CCN(C(=O)c2cccc(OC(F)F)c2)CC1)c1cccc(OC(F)F)c1
    /	13.1%	4.1%	-12.1%	/	/	?	-14.5%
(43) COc1cccc(S(=O)(=O)N2CCN(Cc3ccc4c(c3)OCO4)CC2)c1
    -4.5%	5.9%	12.0%	-4.7%	-11.4%	-26.9%	-23.5%&-1.5%	-13.3%
(44) COc1cc(NC2c3ncccc3C(=O)N2Cc2ccco2)cc(OC)c1OC (stereo unspecified)
    /	4.1%	0.6%	?	/	/	10.7%	8.9%[46.1 µM]
(45) COc1ccc2nc(NC(=O)c3cc(C)oc3C)sc2c1
    -4.3%	?	-32.7%	0.5%	-24.8%	10.7%	28.6%	6.5%
(46) COC(=O)c1ccc(C2C(Oc3ccccc3C)C(=O)N2CCc2ccc(OC)c(OC)c2)cc1 (stereo unspecified)
    -0.9%	2.4%	-8.2%	?	?	0.0%	-29.2%	0.2%
(47) COc1ccc(NC(=O)Cn2c(=O)n(-c3cc(C)cc(C)c3)c(=O)c3oc4ccccc4c32)cc1OC
    -3.1%	/	/	/	?	/	-8.4%	-2.8%[46.1 µM]
(48) COC(=O)/C=C/CSC1=N/C(=C/c2ccc(-n3cncn3)cc2)C(=O)N1
    -2.7%	-14.3%	-0.4%	0.1%	-15.0%	?	-0.7%	10.3%
(49) N[C@@H](Cc1c[nH]c2ccccc12)c1nnc(SCc2c(F)cccc2Cl)o1
    -8.3%	-2.3%	-9.7%	6.9%	3.9%	7.9%	0.0%	?
(50) CCOc1ccc(C(=O)NCC(=O)NCC(c2ccc(OC)cc2)N2CCOCC2)cc1OCC (stereo unspecified)
    /	-6.1%	2.1%	-0.4%	/	/	-6.0%	22.1%
(51) CC1C(=O)NN=C1C(=O)N/N=C/c1ccco1 (stereo unspecified)
    /	0.3%	-2.3%	6.2%[46.1 µM]	/	/	15.0%	8.0%
(52) CCC(Cc1ccccc1)NS(=O)(=O)c1csc(C(N)=O)c1 (stereo unspecified)
    /	-2.4%	5.5%	/	/	-0.3%	2.2%	/
(53) O=C(NCc1ccc2c(c1)CCN2C(=O)c1ccncc1)c1ccccc1Br
    -1.5%	/	/	/	-9.7%	/	?	-11.0%[46.1 µM]
(54) CCN(c1ccccc1)S(=O)(=O)c1ccc(C(=O)Nc2nnc(C3CC3)o2)cc1
    /	0.9%	-0.8%	?	/	/	-16.6%	?
